Bioassay records (PubChem)
TRPML1 ag = agonists of human TRPML1 channel. TRPML1-expressing cells, Ca2+ dye fluorescence, FDSS; host cell line not named in the record; reference of the full effect not given here. Q9GZU1. activation, % (test concentration not listed). 410,000 tested, 0.12% active; in the data active = activation above about 50%; inconclusive = about 30% to 50%; inactive = below about 30%; note: 0% is about no effect; the text of the record puts the active cut at 80%
Target sequence (Q9GZU1 whole entry, looked up): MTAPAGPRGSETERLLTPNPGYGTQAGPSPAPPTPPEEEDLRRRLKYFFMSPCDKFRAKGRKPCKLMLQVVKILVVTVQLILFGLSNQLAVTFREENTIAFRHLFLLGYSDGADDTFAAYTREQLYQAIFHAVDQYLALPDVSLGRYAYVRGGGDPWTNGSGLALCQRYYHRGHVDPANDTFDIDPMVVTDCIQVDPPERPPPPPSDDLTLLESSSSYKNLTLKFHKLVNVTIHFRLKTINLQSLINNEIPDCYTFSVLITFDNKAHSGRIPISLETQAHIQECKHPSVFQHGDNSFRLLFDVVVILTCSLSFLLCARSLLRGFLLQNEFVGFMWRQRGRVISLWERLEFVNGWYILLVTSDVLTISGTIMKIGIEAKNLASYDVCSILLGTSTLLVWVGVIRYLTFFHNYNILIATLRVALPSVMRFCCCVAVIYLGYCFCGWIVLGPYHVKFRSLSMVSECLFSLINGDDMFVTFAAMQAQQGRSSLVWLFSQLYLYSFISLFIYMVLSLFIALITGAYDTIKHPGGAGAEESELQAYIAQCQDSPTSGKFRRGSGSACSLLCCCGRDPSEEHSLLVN
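Agonist activity was taken from a 110 s kinetic Ca2+ dye read on the FDSS after pinning compounds onto TRPML1-DL cells. The cells were seeded at 1,500/well with Tet inducer, incubated about 16 h, then dye-loaded at room temperature.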
TRPML1 blocker = inhibitors of human TRPML1 channel | TRPML1-inducible cells, Ca2+ dye fluorescence, FDSS; stronger effect = lower value; inhibition of EC80 agonist-evoked calcium signal | activity change, negative = inhibition, % (test concentration not listed) | 390,000 tested, 0.02% active; in the data active means activity change below about -50%; inconclusive means about -30% to -50%; inactive means above about -30%;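 note: stimulus is agonist 54-4 at its EC80 concentration; % is set by controls: 0 for no effect and ±100 for the full control effect; compound concentration not given in the record; the text of the record puts the active cut at -80%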
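TRPML1-DL cells, Tet-induced overnight (~16 h, 37 °C) at 1,500 cells/well, were loaded with Ca8 no-wash dye plus quencher for 45-90 min at room temperature. Compounds were pinned during FDSS kinetic reading; agonist 54-4 at EC80 (4 uM final) then added.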
TRPV1 potentiator = human TRPV1 potentiation. Q8NER1. TRPV1-expressing cells, Fluo-8 calcium influx, capsaicin EC20 potentiation; host cell line not named in the record; control for the full effect not named in the record. potentiation, % at 8.33 µM. 320,000 tested, 0.02% active; active means potentiation above 80%; inconclusive means 30% to 80%; inactive means below 30%; note: 0% is about no effect
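Cells expressing TRPV1 were dye-loaded with Fluo-8 and read kinetically: 10 s baseline, 3 min after compound (agonist portion), then 2 min after EC20 capsaicin (allosteric enhancer portion). Calcium-bound dye fluorescence at 480/520 nm.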
Six1-Eya2 inh = inhibitors of human Six1/Eya2 interaction; Q15475+O00167; activity change, % (concentration not given with the values); AlphaScreen GST-Six1/His-Eya2 binding, biochemical; stronger effect = lower value; control for the full effect not named in the record; 360,000 tested, 0.56% active; AID 651725; in the data active = activity change below about -65%; inconclusive = about -30% to -65%; inactive = above about -30%; note: % is set by controls: 0 for no effect and ±100 for the full control effect
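Compounds are tested against tagged Six1 and Eya2 proteins bridged by glutathione donor and nickel acceptor beads; after a one-hour incubation at 37 °C without light, AlphaScreen emission is recorded.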
CtBP-E1A blk = blocks the CtBP interaction with E1A; AlphaScreen GST-E1A/His-CtBP binding, 1536-well; stronger effect = lower value; control for the full effect not named in the record; activity change, % (concentration not given with the values); 340,000 tested, 0.49% active; AID 651724; in the data active means activity change below about -65%; inconclusive means about -30% to -65%; inactive means above about -30%; note: % is set by controls: 0 for no effect and ±100 for the full control effect
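Steps: dispense buffer (Tris pH 8.0, NaCl 300 mM, TCEP 1 mM, BSA, Tween 20); add 5X protein mix (GST-E1A, His-CtBP, 125 nM each); pin 23 nL compound; 2 h at 37 °C, dark; add 5X beads (50 ug/mL); 1 h; read.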
D2 PAM = human D2 receptor positive allosteric modulation. DiscoveRx D2 beta-arrestin cells, luminescence, 90 min; 100% = 57 uM dopamine signal. potentiation, % (no concentration beside the values). 360,000 tested, 0.23% active. AID 624464; active = potentiation of 50% or more; inconclusive = 30% to 50%; inactive = 30% or less;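 note: compound concentration not given in the record; tested on top of an EC20 dose of dopamine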
Target sequence (P14416 whole entry, looked up): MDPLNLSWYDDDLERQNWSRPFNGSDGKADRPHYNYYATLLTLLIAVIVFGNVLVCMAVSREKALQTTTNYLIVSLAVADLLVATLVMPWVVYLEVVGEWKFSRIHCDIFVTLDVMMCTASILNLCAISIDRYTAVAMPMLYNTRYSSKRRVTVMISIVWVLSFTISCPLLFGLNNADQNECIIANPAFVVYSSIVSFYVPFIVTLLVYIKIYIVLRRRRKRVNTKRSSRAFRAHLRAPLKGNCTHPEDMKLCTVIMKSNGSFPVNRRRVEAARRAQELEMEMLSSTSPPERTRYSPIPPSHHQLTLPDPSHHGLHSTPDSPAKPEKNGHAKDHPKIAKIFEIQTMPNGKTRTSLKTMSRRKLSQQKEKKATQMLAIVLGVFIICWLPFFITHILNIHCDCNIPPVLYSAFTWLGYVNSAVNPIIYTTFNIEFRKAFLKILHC
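PathHunter D2 cells, attached overnight at 37 deg C, received compound in DMSO plus dopamine at EC20 (50 nM final) for 90 min at 37 deg C. Beta-arrestin recruitment was read as luminescence after 1 h with detection reagent at ambient temperature.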
An asterisk follows results filed as active; ? = inconclusive; . = not tested or not shown; & = joins results of further samples.

SMILES	TRPML1 ag	TRPML1 blocker	TRPV1 potentiator	Six1-Eya2 inh	CtBP-E1A blk	D2 PAM
O=C(c1ccc(-c2ccccc2Cl)s1)N1CCOCC1	-0.2	9	.	-1	0	-7
CCOC(=O)C1=CCN(S(=O)(=O)c2ccccc2[N+](=O)[O-])C1c1ccc(C)cc1 (configuration not stated)	0.8	9	.	-20	-13	7
Cc1ccc(NC2OC(CO)C(O)C2O)cc1[N+](=O)[O-] (configuration not stated)	0.8	-14	14	9	-9	-3
O=C(N/N=C/c1ccc(OC(F)F)cc1OC(F)F)c1ccc(Br)cc1	1.4	3	-4	6	1	-10
CCN1CCC(NC(=O)c2cc(OC)c(OC)cc2OC)CC1	-0.3	-3	7	4	7	-13
COC(=O)[C@@]12CCCCN1[C@H](c1ccc(-c3cc(C(C)=O)cs3)c(OC)c1)[C@H]1C(=O)N(C)C(=O)[C@H]12	-1.1	-9	?	5	6	-8
CC(C)C[C@H]1CN(CCCC[C@@H]2CNC(=O)C(=O)N2Cc2ccccc2)C(=O)C(=O)N1CCc1ccccc1	-0.3	.	.	6	1	.
CCN(CC(=O)Nc1c(F)cccc1F)C(=O)/C=C/c1ccc(C)cc1	-0.4	-4	-15	7	.	0
C=CCN(c1ccc(C(=O)N2CCN(c3ccc(F)cc3)CC2)cc1)S(C)(=O)=O	1.4	-2	-9	5	-5	-4
CCCS(=O)(=O)N1CCCC(C(=O)NCCCN(C)c2ccccc2)C1 (configuration not stated)	-0.8	12	-26	-6	2	9
C/C(=N\NC(=O)c1ccc(-n2cnnn2)cc1)c1ccc(Cl)cc1	-0.5	12	-12	-1	.	-1
Cc1ccc(OCCCC(=O)N(C)CC(=O)Nc2ccccc2Br)cc1	2.3	-1	6	-1	4	-28
COc1ccc(/C=C/C(=O)OCC(=O)Nc2ccc(S(N)(=O)=O)cc2)cc1OC	1.9	-22	8	-2	.	-31
CNc1ccc(S(=O)(=O)NCC(=O)NCCCc2ccccc2)cc1[N+](=O)[O-]	0.0	-14	-14	0	-5	0
Cn1c(O)c(N=NC(=O)c2cc(-c3cccs3)nc3ccccc23)c2ccccc21	0.0	-14	-13	-9	1	6
O=C(NCCN1CCN(c2ccccc2F)CC1)C1c2ccccc2C(=O)N2CCc3ccccc3C12 (configuration not stated)	0.8	-1	-8	4	4	-37
NS(=O)(=O)c1ccc(CCNc2ccc(C(F)(F)F)cn2)cc1	-0.2	-14	15	2	-9	-6
COc1ccccc1CNS(=O)(=O)c1c(C(=O)N2CCCCCC2)c(C)n(C)c1C	-0.9	-10	2	-1	3	-2
CN(c1ccccc1)S(=O)(=O)c1cccc(C(=O)NNC(=O)c2ccccc2)c1	0.8	4	9	4	7	5
COc1ccccc1C(C[N+](=O)[O-])c1c(N)n(C)c(=O)n(C)c1=O (configuration not stated)	0.5	4	8	21	.	-8
CCN(c1ccc(OC)cc1)S(=O)(=O)c1nnc(NC(=O)CC(C)C)s1	.	.	-16	-10	1	-3
CC(c1nc2ccccc2c(=O)[nH]1)N(C)c1ccc2ccccc2c1 (configuration not stated)	0.4	1	9	-4	-2	20
COc1ccc(CNC/C=C/c2ccccc2)cc1	-1.0	-18	-1	1	.	-61
C/C(=N\NC(N)=S)c1ccc(-n2ccnc2)cc1	.	.	3	-9	-3	-6
Cc1cc(C)cc(N(C(=O)c2cccs2)C2C=CS(=O)(=O)C2)c1 (configuration not stated)	-0.6	0	1	0	-12	-7
CN(CC(=O)Nc1ccc(Cl)cc1)C(=O)CNC(=O)c1ccc(Br)o1	-0.8	-6	-8	3	-3	-17
CCNC1(C#N)CCN(Cc2ccccc2)CC1	0.0	-16	.	-2	1	-27
Oc1c(C2=NCCNC(C(F)(F)F)=C2)ccc2ccccc12	-0.6	43	0	?	?	-11
COCCn1c(SCC(=O)NN2C(=O)NC(C)(c3ccccc3)C2=O)nnc1-c1ccncc1 (configuration not stated)	-0.1	7	6	6	.	-2
COc1ccc(OCc2nnc(SCC(=O)Nc3ccccc3C#N)o2)cc1	-0.6	2	7	3	0	3
CCCP(=O)(CC(=O)O)c1ccccc1 (configuration not stated)	-0.2	11	-12	4	1	-29
CCC1(c2ccccc2)SC(N)=NC1=O (configuration not stated)	0.4	-4	.	4	3	-11
CSc1nc(C)cc(Oc2ccccc2)n1	0.8	22	30	1	11	-4
CCOC(=O)NNc1ccc(C(F)(F)F)cn1	0.5	-9	10	11	4	-5
CC1CCC(C(C)C)C(OC(=O)CSc2nnc(N)s2)C1 (configuration not stated)	3.2	9	-3	2	6	-15
CN(c1cccc(Cl)c1)S(=O)(=O)c1cccc(C(=O)NC2=NCCS2)c1	1.7	11	13	4	4	-3
COC(=O)c1ccc(S(=O)(=O)NCc2ccco2)o1	0.6	-14	2	0	.	7
Cc1occc1C(=O)O/N=C(\N)c1ccc(Cl)cc1	-0.6	-2	-7	-4	-21	?
O=C(O)c1nn(CC(=O)N2CCCCCC2)c(=O)c2ccccc12	-0.2	20	5	3	6	-18
Cn1cccc1C(=O)OCc1nc2ccccc2c(=O)[nH]1	-0.1	-22	.	-7	-3	1
O=C1CCC(c2ccccc2)=NN1Cc1c(F)cccc1Cl	0.1	-2	-12	-4	6	-4
Cc1ccc(OCC(=O)Nc2ccc(N3CCN(S(C)(=O)=O)CC3)cc2)cc1	0.0	6	-9	-5	0	7
Cc1csc(NC(=O)c2ccc(Cn3nc(C)c(Br)c3C)o2)n1	0.6	7	17	-17	1	7
O=C(O)c1cccc(S(=O)(=O)Nc2ccccc2Cl)c1	-0.3	-3	6	3	8	-13
CCCCc1c(-c2ccccc2OC)ncn1CCc1ccc(Cl)cc1	2.3	.	.	-16	3	.
CCN(CC)CCNC(=O)c1ccc(CS(=O)(=O)c2ccc(Br)cc2)o1	0.1	11	2	-7	3	-11
CCOC(=O)CSc1nc(C)c(C(C)=O)cc1C#N	-0.6	2	-3	1	5	-19
NC(=S)n1[nH]c(-c2ccc([N+](=O)[O-])cc2)c(N=Nc2cccc(Cl)c2)c1=O	0.5	-8	-6	5	0	1
NS(=O)(=O)c1ccc(Cl)c(S(N)(=O)=O)c1	-0.3	-13	.	2	2	-6
Cc1[nH]c2ccccc2c1/C=N/NC(=O)CNC(=O)COc1ccccc1	0.7	-7	20	-11	-13	-10
CCOC(=O)C(Cc1ccccc1)NC(=O)CCCC(=O)c1ccccc1 (configuration not stated)	1.4	-4	-7	12	.	-3
Cc1cc(C)c2cc(C(=O)N(C)C3CCN(C)CC3)[nH]c2c1	0.5	-4	0	4	4	-8
COc1ccc(Cl)cc1C(=O)NNC(=O)c1cccc(S(=O)(=O)N(C)C)c1	-0.5	1	-3	-6	-2	-9
Cc1cccc(NC(=O)Cn2nnc3ccccc32)c1	0.0	12	-3	4	0	-10
O=c1c2[nH]c3ccccc3c2ncn1Cc1cccnc1	0.7	4	7	3	6	-11
COc1cc2cc(-c3ccc(O)cc3O)nc(C)c2cc1OC	0.4	17	-5	?	-86*	17
CCOC(=O)[C@@H]1[C@H]2COc3cc(OC)ccc3[C@H]2N2C(=O)N(c3ccc(OC)cc3)C(=O)[C@]12C	0.0	-3	.	1	-1	-2
O[C@H]1CN(CC2CCCCC2)[C@@H](c2ccc(Cl)cc2)C[C@@H]1n1cc(-c2ccc(F)cc2)nn1	-0.3	-1	.	0	0	-5
Cc1ccc(S(=O)(=O)/C(C#N)=C/c2c(N3CCOCC3)nc3ccccn3c2=O)cc1	-0.1	-3	-4	-15	?	-6
COC(=O)CCC(=O)COc1ccccc1C#N	0.7	8	4	5	11	-9

Taken from above:
Cc1cccc(NC(=O)Cn2nnc3ccccc32)c1 in TRPML1 blocker is entered as 12
O=C(O)c1nn(CC(=O)N2CCCCCC2)c(=O)c2ccccc12 in TRPML1 blocker is entered as 20
CN(c1cccc(Cl)c1)S(=O)(=O)c1cccc(C(=O)NC2=NCCS2)c1 in D2 PAM is entered as -3

The listing continues.
SMILES	TRPML1 ag	TRPML1 blocker	TRPV1 potentiator	Six1-Eya2 inh	CtBP-E1A blk	D2 PAM
CN1CCN(c2ccc(CNC[C@H]3O[C@@H](n4cnc5c(=O)[nH]c(N)nc54)[C@H](O)[C@@H]3O)c(S(C)(=O)=O)c2)CC1	0.0	-17	.	6	4	-6
CCOC(=O)Cc1cc(-c2ccc(OC)cc2)nc2ccc3ccccc3c12	0.6	17	5	24	1	-24
CC(c1ccncn1)N(C)C(=O)c1ccc2oc(Cc3ccccc3)nc2c1 (configuration not stated)	0.3	-15	-8	12	3	-1
CN(Cc1ccc(Cl)cc1)C(=O)c1cc(S(=O)(=O)N2CCOCC2)ccc1N1CCCC1	-1.0	26	-9	-4	-2	23
CCOc1ncc(S(=O)(=O)N2CCN(CC)CC2)cc1C(=O)O	-0.9	-20	-14	7	-1	9
Cc1ccc(NS(=O)(=O)c2ccc(C(=O)NCc3cccnc3)cc2)cc1	2.2	-14	-19	6	12	-10
O=C(N/N=C/c1ccccn1)C(O)c1ccccc1 (configuration not stated)	-0.4	-2	2	-15	.	-15
CC1CCCN(C(=O)COC(=O)C2CCN(S(=O)(=O)c3ccc(Cl)c(C(F)(F)F)c3)CC2)C1 (configuration not stated)	0.5	-6	-17	10	-16	-3
Cc1cccn2c(=O)c(C=C(C#N)C#N)c(N3CCN(c4cccc(Cl)c4)CC3)nc12	1.5	1	4	-17	-14	-2
CCOCCCNC(=O)c1c[nH]c2ccc(S(=O)(=O)Nc3cccc(OC)c3)cc2c1=O	-0.8	-1	?	1	10	16
Cc1onc(-c2ccccc2Cl)c1C(=O)Nc1ccc(OCC(=O)N2CCOCC2)cc1	0.0	-5	?	9	-7	10
COCCNC(=O)C1(C)CCCN(C(=O)c2ccc(C)c(F)c2)C1 (configuration not stated)	0.3	19	.	4	2	-1
OCCCc1nc2ccccc2n1CCCCOc1ccccc1	3.2&1.2	-13&21	-4	0	.	-8
C=CCNc1ncnc2c1cnn2-c1ccc(C)cc1C	-0.4	1	25	-3	1	1
NC(=O)c1ccc(NC(=O)CCCN2C(=O)NC3(CCCC3)C2=O)cc1	1.6	-19	-4	8	-5	4
COc1ccccc1-c1cc(C(=O)O)c2c(=O)n(C)c(=O)n(Cc3ccccc3)c2n1	0.1	29	-2	-3	-8	-9
COc1ccc(-c2nc3c(c(=O)[nH]c(=O)n3Cc3ccccc3)n2CCO)cc1	-0.8	16	1	-5	14	-6
Cc1ccc(/C=C2\C(=O)NC(=O)N2C)o1	0.4	20	5	0	-1	-1
O=c1c2c(nc3c(-c4cccc5ccccc45)c[nH]n13)CCC2	0.3	-4	?	-1	2	-21
CC(C)c1ccc(NCCC(=O)c2ccc(Br)cc2)cc1	-0.2	4	-10	6	19	-11

Entries listed so far marked active in CtBP-E1A blk.
SMILES	TRPML1 blocker	Six1-Eya2 inh	CtBP-E1A blk	D2 PAM
COc1cc2cc(-c3ccc(O)cc3O)nc(C)c2cc1OC	17	?	-86*	17

Exported field by field: entries from further up.
CN(Cc1ccc(Cl)cc1)C(=O)c1cc(S(=O)(=O)N2CCOCC2)ccc1N1CCCC1
  TRPML1 ag = -1.0
  TRPML1 blocker = 26
  TRPV1 potentiator = -9
  Six1-Eya2 inh = -4
  CtBP-E1A blk = -2
  D2 PAM = 23

CCOc1ncc(S(=O)(=O)N2CCN(CC)CC2)cc1C(=O)O
  TRPML1 ag = -0.9
  TRPML1 blocker = -20
  TRPV1 potentiator = -14
  Six1-Eya2 inh = 7
  CtBP-E1A blk = -1
  D2 PAM = 9

Rows are unselected; about 0.95% have a hit in one of these screens.
